ALR H2O2 inh: inhibitors of human sulfhydryl oxidase ALR. P55789. purified ALR, DTT oxidation, H2O2 HRP-luminol luminescence. inhibition, % (no concentration beside the values). actives 3.8% (n = 290,000). AID 485317;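 active = mean and each replicate at 75% or more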;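 note: stock transfer was 7.5 nL into about 7.5 µL; 0% = neutral wells and 100% = wells with inactivated enzyme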
Target sequence (P55789 whole entry, looked up): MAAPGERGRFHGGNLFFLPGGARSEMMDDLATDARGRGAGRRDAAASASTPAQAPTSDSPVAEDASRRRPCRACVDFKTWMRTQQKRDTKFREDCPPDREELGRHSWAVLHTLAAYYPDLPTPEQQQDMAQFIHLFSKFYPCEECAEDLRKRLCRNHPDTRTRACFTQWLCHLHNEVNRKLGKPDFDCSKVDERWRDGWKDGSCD
Beta2AR agonist: human beta-2 adrenergic receptor agonism by FAP. Am2.2-beta2AR cells, FAP receptor internalization, flow cytometry; reference of the scale not given here. P07550. actives 0.43% (n = 340,000). response, % (test concentration not listed);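 active = response above a set limit, near 3 SD of response in nonfluorescent compounds, cut at about 42% in these data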;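 note: stock transfer was 100 nL into about 11 µL; a reference agonist was the positive control; negative values mostly stem from fluorescent compounds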
Target sequence (P07550 whole entry, looked up): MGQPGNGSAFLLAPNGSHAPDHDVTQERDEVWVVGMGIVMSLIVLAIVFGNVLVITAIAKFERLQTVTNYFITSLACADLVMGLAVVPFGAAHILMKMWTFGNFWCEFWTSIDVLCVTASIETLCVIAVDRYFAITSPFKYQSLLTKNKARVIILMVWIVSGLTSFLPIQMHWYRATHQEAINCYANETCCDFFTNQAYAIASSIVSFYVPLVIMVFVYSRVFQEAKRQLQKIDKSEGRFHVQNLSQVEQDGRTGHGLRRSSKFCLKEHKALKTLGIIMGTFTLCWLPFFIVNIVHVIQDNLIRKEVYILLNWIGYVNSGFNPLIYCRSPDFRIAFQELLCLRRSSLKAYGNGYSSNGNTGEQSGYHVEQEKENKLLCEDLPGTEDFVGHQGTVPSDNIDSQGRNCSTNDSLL
HNF4A DNA FP: change in binding of human HNF4 alpha to DNA; AID 1224865; HNF4a-FITC DNA binding, fluorescence polarization, 1 h; activity change, % at 10 µM; actives 0.3% (n = 360,000); P41235; in the data active = activity change above about 30%, passing the limit was not always enough;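 note: controls were the assay level and a saturating level of protein; the project sought stronger binding though the title names inhibitors; some compounds called inactive have numbers as strong as hits; positive values seem to mean higher polarization but the record does not say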
E coli growth: inhibitors of Escherichia coli growth; OD600, 23 h; hits give low values; OD600 absorbance (test concentration not listed); actives 0.21% (n = 330,000); AID 1053175;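 active = OD600 absorbance below the run mean of sample wells minus 3.6 SD, in any replicate, cut at about 0.56 in these data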;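 note: stock transfer was 300 nL into about 60 µL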
UCH37 inh: human UCH37 deubiquitinating enzyme inhibition. Q9Y5K5. purified proteasome/UCH37, Ub-AMC cleavage fluorescence. inhibition, % (concentration not given with the values). actives 0.33% (n = 330,000). AID 588478;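 active = mean of two replicates above 20%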;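 note: 0% = compound-free wells with enzyme and 100% = wells lacking proteasome; stock transfer was 100 nL into about 20 µL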
Target sequence (Q9Y5K5 whole entry, looked up): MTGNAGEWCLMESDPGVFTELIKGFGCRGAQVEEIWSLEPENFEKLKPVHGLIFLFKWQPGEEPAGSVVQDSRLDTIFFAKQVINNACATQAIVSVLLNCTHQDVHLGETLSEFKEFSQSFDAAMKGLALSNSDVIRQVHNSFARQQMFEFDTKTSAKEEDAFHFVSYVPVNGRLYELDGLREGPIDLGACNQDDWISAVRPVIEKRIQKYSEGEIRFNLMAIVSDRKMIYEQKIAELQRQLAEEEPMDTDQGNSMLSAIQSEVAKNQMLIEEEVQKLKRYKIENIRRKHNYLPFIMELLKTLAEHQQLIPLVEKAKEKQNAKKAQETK
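Schedule: 30 min plus 25 min, room temperature / Material: human UCH37 within purified proteasomes / Technique: AMC fluorescence intensity at 355/460 nm / Buffer or medium: pH 7.4 Tris-HCl (50 mM) with ovalbumin, ATP-MgCl2, DTT / Controls: wells without proteasome as full block, compound-free enzyme plus substrate as uninhibited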
FGF22 binding: FGF22 (human) thermal shift binding; recombinant FGF22 thermal shift, SYPRO orange fluorescence; percent of sucrose octasulfate shift, DMSO zero; calls only at 9.99 µM; actives 1.5% (n = 340,000); AID 651658; Q9HCT0;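 active = melting point raised past a set limit in the mean and every replicate; three in four hits are not shown here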
rRNA inh HTS: inhibitors of bacterial rRNA selective over humanized ribosomes. E. coli WT GFP vs humanized-ribosome RFP mutants, fluorescence, 24 h; hits give low values; DMSO median 0, no signal -100. GFP signal change (wild-type ribosome), % (test concentration not listed). actives 1.6% (n = 350,000);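 active = significant combined selectivity score with lowered wild-type GFP, culture density cut under 30%, mutant RFP and density less affected; inactive = any of these conditions unmet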; note: one replicate is shown; some compounds called inactive have numbers as strong as hits
rRNA inh HTS OD600: recorded beside rRNA inh HTS, whose call it bears; OD600 change, %; measured here: OD600 growth;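 optical density of the mix in the first replicate; 0 = DMSO median and -100 = no signal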
rRNA inh HTS RFP: recorded beside rRNA inh HTS, whose call it bears; RFP signal change, %; measured here: RFP humanized mutant strains;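 first replicate; 0 = DMSO median and -100 = no signal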
Active calls of the source: *.

`Nc1ccc(C2(c3ccc(N)cc3)OC(=O)c3ccccc32)cc1` gave ALR H2O2 inh 13.9, Beta2AR agonist 14.6, HNF4A DNA FP 2.5, E coli growth 0.668, UCH37 inh 0.2, rRNA inh HTS 9.5, rRNA inh HTS OD600 -1.3 and rRNA inh HTS RFP 2.0.
Cn1c(-c2ccccc2)c(C(=O)CC#N)c2ccccc21 was read as ALR H2O2 inh 44.0, Beta2AR agonist -3.5, HNF4A DNA FP -0.3, E coli growth 0.635, UCH37 inh 1.6, FGF22 binding inactive, rRNA inh HTS -21.8, rRNA inh HTS OD600 -17.8 and rRNA inh HTS RFP -1.1.
For O=c1c2ccccc2n2c(-c3cccc(F)c3)nnc2n1Cc1ccccc1 the results were ALR H2O2 inh 0.9, Beta2AR agonist -19.9, HNF4A DNA FP -1.1, E coli growth 0.669, UCH37 inh 5.6, FGF22 binding inactive, rRNA inh HTS 12.6, rRNA inh HTS OD600 4.5 and rRNA inh HTS RFP -0.1.
COc1ccc(NC(=S)N2CCC(c3ccc(C)cc3)C2)cc1 (stereo not drawn) was read as ALR H2O2 inh -2.1, Beta2AR agonist -2.6, HNF4A DNA FP 3.4, E coli growth 0.661, UCH37 inh 3.3, FGF22 binding inactive, rRNA inh HTS 16.0, rRNA inh HTS OD600 2.1 and rRNA inh HTS RFP 3.2.
`Cc1nc2nc(COc3ccccc3)[nH]n2c(=O)c1Cl` gave ALR H2O2 inh 28.9, Beta2AR agonist 6.3, HNF4A DNA FP 4.1, E coli growth 0.657 and UCH37 inh 0.2.
Cc1ccc(C(=O)COC(=O)c2cccc(NC(=O)c3ccc([N+](=O)[O-])cc3[N+](=O)[O-])c2)cc1 was read as ALR H2O2 inh 11.4, Beta2AR agonist 15.3, HNF4A DNA FP -1.1, E coli growth 0.667 and UCH37 inh 4.1.
O=C(c1ccc(Br)o1)N1CCc2ccccc21 was read as ALR H2O2 inh -2.9, E coli growth 0.647 and UCH37 inh 5.4.
For O=C1NC(=O)C2(N1)c1ccccc1-c1ccccc12 the results were Beta2AR agonist -1.4, HNF4A DNA FP 3.6, E coli growth 0.696, UCH37 inh 1.8, FGF22 binding inactive, rRNA inh HTS 2.0, rRNA inh HTS OD600 12.6 and rRNA inh HTS RFP -1.5.
`N#CC1(c2ccccc2)CCCN1C(=O)c1ccccc1Br` (stereo not drawn) gave ALR H2O2 inh -7.3, Beta2AR agonist 7.3, HNF4A DNA FP 5.1, E coli growth 0.749 and UCH37 inh 7.4.
O=C(Nc1cccc(/C=C/c2nc3ccccc3c(=O)[nH]2)c1)c1ccccc1Cl was read as ALR H2O2 inh 0.2, Beta2AR agonist 29.4, HNF4A DNA FP 4.4, E coli growth 0.733, UCH37 inh -56.1, FGF22 binding inactive, rRNA inh HTS 8.4, rRNA inh HTS OD600 6.0 and rRNA inh HTS RFP -4.7.
`O=C(N/N=C/c1ccc2c(c1)OCCO2)c1ccncc1` gave ALR H2O2 inh -4.9, Beta2AR agonist 1.2, HNF4A DNA FP 2.3, FGF22 binding inactive, rRNA inh HTS 21.9, rRNA inh HTS OD600 21.1 and rRNA inh HTS RFP 3.2.
O=C(O)CCN1c2ccccc2Sc2ccccc21 was read as ALR H2O2 inh 82.1*, Beta2AR agonist 1.3, HNF4A DNA FP -1.6, E coli growth 0.674, UCH37 inh 0.9, FGF22 binding inactive, rRNA inh HTS -0.4, rRNA inh HTS OD600 -7.4 and rRNA inh HTS RFP 1.0.
For CC(C)(C)C1CCC(C(=O)Nc2nccs2)CC1 (stereo not drawn) the results were ALR H2O2 inh -19.4, Beta2AR agonist -1.5, HNF4A DNA FP -0.4, E coli growth 0.686, UCH37 inh 6.5, FGF22 binding inactive, rRNA inh HTS 5.2, rRNA inh HTS OD600 10.0 and rRNA inh HTS RFP -0.1.
For COCCn1c(C)cc(/C=C2/SC(=O)N(C(C)C(=O)OC)C2=O)c1C (stereo not drawn) the results were ALR H2O2 inh 39.9, Beta2AR agonist 4.8, HNF4A DNA FP 4.7, E coli growth 0.646, UCH37 inh 9.7, FGF22 binding inactive, rRNA inh HTS -0.8, rRNA inh HTS OD600 0.1 and rRNA inh HTS RFP 3.7.
`Cc1cc(C(=O)Nc2ccccc2)oc1C` gave ALR H2O2 inh 1.4, Beta2AR agonist -11.5, HNF4A DNA FP -2.7, E coli growth 0.699 and UCH37 inh -2.7.
Screening Cc1ccccc1CN1CCN(S(=O)(=O)c2cccc3nsnc23)CC1 returned ALR H2O2 inh -48.0, Beta2AR agonist 0.1, HNF4A DNA FP 3.8, E coli growth 0.749, UCH37 inh 1.7, FGF22 binding inactive, rRNA inh HTS -29.3, rRNA inh HTS OD600 -31.0 and rRNA inh HTS RFP -8.8.
For CC(C)N1CC2(CC(c3ccc(Cl)cc3Cl)=NO2)CN1C(=O)c1ccc(C(C)(C)C)cc1 (stereo not drawn) the results were HNF4A DNA FP -0.7, FGF22 binding inactive, rRNA inh HTS 11.8, rRNA inh HTS OD600 0.1 and rRNA inh HTS RFP 1.3.
CCO[C@@H]1OC(C(=O)NCc2ccccc2)=C[C@H](c2ccccc2)[C@H]1CCCO was read as ALR H2O2 inh -5.3, Beta2AR agonist 3.9, HNF4A DNA FP -3.3, UCH37 inh 1.8, FGF22 binding inactive, rRNA inh HTS 4.8, rRNA inh HTS OD600 -5.2 and rRNA inh HTS RFP 16.0.
`CCOC(=O)c1ccc(N=Cc2nc(-c3ccccc3)oc2OC(C)=O)cc1` gave ALR H2O2 inh 93.6*, Beta2AR agonist 22.6, HNF4A DNA FP -0.8, E coli growth 0.71 and UCH37 inh 6.5.
CN1C(=O)C2(C(C#N)=C(N)Oc3c2oc(CO)cc3=O)c2ccccc21 (stereo not drawn) was read as Beta2AR agonist -1.6, HNF4A DNA FP -1.8, E coli growth 0.663, UCH37 inh 0.4, FGF22 binding inactive, rRNA inh HTS 12.2, rRNA inh HTS OD600 9.4 and rRNA inh HTS RFP 3.5.

Structures above with an NH in an aromatic ring (2):
`Cc1nc2nc(COc3ccccc3)[nH]n2c(=O)c1Cl` gave ALR H2O2 inh 28.9, Beta2AR agonist 6.3, HNF4A DNA FP 4.1, E coli growth 0.657 and UCH37 inh 0.2.
O=C(Nc1cccc(/C=C/c2nc3ccccc3c(=O)[nH]2)c1)c1ccccc1Cl was read as ALR H2O2 inh 0.2, Beta2AR agonist 29.4, HNF4A DNA FP 4.4, E coli growth 0.733, UCH37 inh -56.1, FGF22 binding inactive, rRNA inh HTS 8.4, rRNA inh HTS OD600 6.0 and rRNA inh HTS RFP -4.7.

Going on with the list:
Screening CCCCCCCNc1cccc(C)c1 returned ALR H2O2 inh -6.3, Beta2AR agonist 6.0, HNF4A DNA FP 0.4, E coli growth 0.682, UCH37 inh 0.6, FGF22 binding inactive, rRNA inh HTS 5.1, rRNA inh HTS OD600 2.1 and rRNA inh HTS RFP 1.8.
`O=C(CCCN1C(=O)c2ccccc2C1=O)Nc1cccnc1` gave ALR H2O2 inh -10.2, Beta2AR agonist -4.8, HNF4A DNA FP 0.1, E coli growth 0.653 and UCH37 inh 0.4.
For Cc1ccc(S(=O)(=O)N2CCCCC2)cc1NC(=O)COC(=O)c1c(F)cccc1F the results were ALR H2O2 inh 0.8, Beta2AR agonist -5.0, HNF4A DNA FP 2.6, E coli growth 0.667, UCH37 inh 1.0, FGF22 binding inactive, rRNA inh HTS -13.3, rRNA inh HTS OD600 -18.3 and rRNA inh HTS RFP -2.4.
CC1(C)Cc2c(sc3c2c(=N)n(Cc2ccco2)c(=O)n3CC(=O)Nc2cccc(Cl)c2)CO1 was read as ALR H2O2 inh -6.8, Beta2AR agonist 2.1, HNF4A DNA FP 6.6, E coli growth 0.763 and UCH37 inh -3.6.
O=C(CN1C(=O)c2cccnc2Oc2ccc(Cl)cc21)NCCC1=CCCCC1 was read as ALR H2O2 inh -17.1, Beta2AR agonist -5.4, HNF4A DNA FP -2.7, E coli growth 0.705, UCH37 inh -0.5, FGF22 binding inactive, rRNA inh HTS 7.6, rRNA inh HTS OD600 7.4 and rRNA inh HTS RFP -0.6.
For COc1ccc(C(=O)/C=C2\NCCc3cc(OC)c(OC)cc32)cc1OC the results were ALR H2O2 inh -49.2, Beta2AR agonist 17.0, HNF4A DNA FP 10.8, E coli growth 0.657, UCH37 inh -8.0, FGF22 binding inactive, rRNA inh HTS 1.9, rRNA inh HTS OD600 7.2 and rRNA inh HTS RFP 0.7.
NC(=O)C1CCN(CC(=O)Nc2cccnc2Cl)CC1 was read as Beta2AR agonist -0.2, HNF4A DNA FP 0.5, E coli growth 0.709, UCH37 inh 2.4, FGF22 binding inactive, rRNA inh HTS 18.0, rRNA inh HTS OD600 7.3 and rRNA inh HTS RFP 1.8.
`CCCNC(=O)C1(C)CCN(C(=O)c2c(F)ccc(C)c2F)C1` (stereo not drawn) gave HNF4A DNA FP -2.4, FGF22 binding inactive, rRNA inh HTS 12.8, rRNA inh HTS OD600 25.7 and rRNA inh HTS RFP -0.6.
CCCC(C(=O)NC(C)(C)C)N(CC1CCCO1)C(=O)CNS(=O)(=O)c1ccc(F)cc1 (stereo not drawn) was read as ALR H2O2 inh -5.1, Beta2AR agonist 5.0, HNF4A DNA FP 1.7, E coli growth 0.713, UCH37 inh -0.5, FGF22 binding inactive, rRNA inh HTS 4.8, rRNA inh HTS OD600 5.4 and rRNA inh HTS RFP -1.8.
Screening O=C(NCCc1ccc2c(c1)OCCO2)c1cc(S(=O)(=O)N2CCCC2)ccc1Br returned Beta2AR agonist 2.6, HNF4A DNA FP 5.8, E coli growth 0.686, UCH37 inh 0.3, FGF22 binding inactive, rRNA inh HTS 6.3, rRNA inh HTS OD600 11.7 and rRNA inh HTS RFP 4.5.
`COc1ccc(/C=N/NC(=O)COc2cc(C)cc(C)c2)cc1COC(C)=O` gave ALR H2O2 inh -4.5, Beta2AR agonist -0.7 and HNF4A DNA FP -3.4.
Screening Cc1ccc(S(=O)(=O)N2CCN(C(=O)CN3C(=O)NC4(CCCCC4)C3=O)CC2)c(C)c1 returned ALR H2O2 inh 6.0, Beta2AR agonist -3.9, HNF4A DNA FP 2.1, E coli growth 0.606, UCH37 inh 1.0, FGF22 binding inactive, rRNA inh HTS 5.2, rRNA inh HTS OD600 9.1 and rRNA inh HTS RFP -0.6.
`N#Cc1ccc(NCC(=O)N2CCN(S(=O)(=O)c3ccccc3)CC2)cc1` gave ALR H2O2 inh -4.6, Beta2AR agonist -2.4, HNF4A DNA FP -0.7, E coli growth 0.685, UCH37 inh 5.1, FGF22 binding inactive, rRNA inh HTS -1.8, rRNA inh HTS OD600 -2.1 and rRNA inh HTS RFP 0.2.
Screening CCCc1nnc(NC(=O)C2CCN(C(=O)C3CC(=O)N(c4ccc(C)cc4)C3)CC2)s1 (stereo not drawn) returned ALR H2O2 inh -8.7, Beta2AR agonist 8.6, HNF4A DNA FP -1.6, E coli growth 0.671, UCH37 inh 3.3, FGF22 binding inactive, rRNA inh HTS 1.4, rRNA inh HTS OD600 -2.4 and rRNA inh HTS RFP 5.4.
Screening Cn1nc(C(C)(C)C)cc1C(=O)NNC(=O)c1ccc(C(F)(F)F)cc1 returned ALR H2O2 inh -1.9, Beta2AR agonist -4.4, HNF4A DNA FP -3.2, E coli growth 0.656, UCH37 inh 2.3, FGF22 binding inactive, rRNA inh HTS 1.2, rRNA inh HTS OD600 6.0 and rRNA inh HTS RFP -1.2.
COc1ccc(-c2csc(NC(=O)C3CC(=O)N(Cc4ccco4)C3)n2)cc1 (stereo not drawn) was read as ALR H2O2 inh 5.3, Beta2AR agonist 5.7, HNF4A DNA FP 1.5, E coli growth 0.647, UCH37 inh 0.9, rRNA inh HTS -41.1, rRNA inh HTS OD600 -57.6 and rRNA inh HTS RFP -5.7.

Source: PubChem BioAssay (several laboratories)

Some of the compounds tested, so the mix of outcomes need not match the whole.
